HTT promoter inh: Primary qHTS for Identification of Small Molecule Inhibitors of Huntingtin Promoter Activity. HEK293 HTT promoter firefly luciferase reporter (activity 0% = vehicle and -100% = no light), 24 h. Potency, µM (doses to about 57.5 µM), without a hit: at the top dose activity change, negative = inhibition, most hits filed as inhibitors. 0.93% of 48,000 active. AID 1508623, 2021; active means well fitted inhibition curve with a large enough effect; inconclusive means small, poorly fitted or top-dose-only effect; inactive means no such curve, though single readings can be large or run the other way; further: nearly all actives have a fitted effect of over 50% in size
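HEK293 cells carrying firefly luciferase reporters were seeded at 2,500 per well in Opti-MEM and cultured for 24 h. They were then treated with compounds at up to 57.5 uM final for 24 h at 37 degrees C before Dual-Glo luminescence readout.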
PMP22 txn: Cell-based coincidence reporter assay to measure PMP22 gene transcription in S16 Pmp22-F2sN cells - Primary screen; Potency, µM (highest dose often 57.5 µM), without a hit: at the highest dose activity change, negative = inhibition, most hits filed as inhibitors; S16 Pmp22-F2sN Schwann cells (luciferase reporters placed in the Pmp22 gene), FLuc/NLuc coincidence luminescence, 24 h; AID 1508649, 2021; 2% of 43,000 active; active = clear falling dose curves in both reporters; inconclusive = both reporters move, but less clearly or upward; inactive = either reporter flat; the % is the NLuc reporter signal; further: on the % scale 0 is the no-effect control and ±100 the full control effect; some results filed as inactive show a strong effect at the top dose
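qHTS, 1536-well. Cells seeded, compounds added by pin tool, 24 h 37C. Nano-Glo reagent 1 (lysis/FLuc), 10 min RT, read; Stop&Glo, 10 min RT, read NLuc.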
The depositor's hits bear a star; ? = inconclusive; nt = no result given; & = joins results of further samples; [ ] = another dose, or the depositor's remark. Potency means the concentration at half of the fitted maximal effect.

The opening 6 compounds as a preview:
Results follow in this order: HTT promoter inh | PMP22 txn
- Cc1cc(S(=O)(=O)NCC(c2ccco2)S(=O)(=O)c2ccccc2)ccc1F (centres undefined)
    ? | -27%
- Cc1cc(Cl)ccc1NC(=O)C1CCN(S(=O)(=O)c2ccc3[nH]c(=O)ccc3c2)CC1
    -9% | -8%
- Cc1ccc(S(=O)(=O)N2CCC(c3nnc(-c4cccc(C)c4)o3)CC2)cc1
    ? | ?
- COc1ccc(C(=O)N(Cc2ccco2)Cc2ccc(C)o2)cc1
    -4% | -1%
- Cc1cccc(Nc2ncnc3onc(-c4ccc(Cl)cc4)c23)c1C
    -18% | -6%
- Cc1c(Cl)cccc1-n1nc(C)c2c(C)cc(=O)n(CC(=O)NCc3ccccc3)c21
    -15% | -15%

The listing, from the start:
Results follow in this order: HTT promoter inh | PMP22 txn
- Cc1cc(S(=O)(=O)NCC(c2ccco2)S(=O)(=O)c2ccccc2)ccc1F (centres undefined)
    ? | -27%
- Cc1cc(Cl)ccc1NC(=O)C1CCN(S(=O)(=O)c2ccc3[nH]c(=O)ccc3c2)CC1
    -9% | -8%
- Cc1ccc(S(=O)(=O)N2CCC(c3nnc(-c4cccc(C)c4)o3)CC2)cc1
    ? | ?
- COc1ccc(C(=O)N(Cc2ccco2)Cc2ccc(C)o2)cc1
    -4% | -1%
- Cc1cccc(Nc2ncnc3onc(-c4ccc(Cl)cc4)c23)c1C
    -18% | -6%
- Cc1c(Cl)cccc1-n1nc(C)c2c(C)cc(=O)n(CC(=O)NCc3ccccc3)c21
    -15% | -15%
- COc1ccc2c(c1)c1c(c(=O)n(-c3ccc(C)cc3)c(=O)n1CC(=O)c1ccc(Cl)cc1)n2C
    -1% | -42%
- CCOc1ccc(NS(=O)(=O)c2ccc3[nH]c4c(c3c2)CCCC4)cc1
    -4% | ?
- CS(=O)(=O)c1oc(-c2ccc(F)cc2)nc1S(=O)(=O)c1ccc(Cl)cc1
    1% | 4.5µM*
- COc1ccc(NC(=O)c2ccc3c(c2)nnn3C2CCCC2)cc1Cl
    -15% | 6%
- CCC(Cn1nnc2ccccc2c1=O)NC(=O)Nc1cc(Cl)ccc1OC (centres undefined)
    -13% | -1%
- C=CC(=O)Nc1cc2c(Nc3ccc(F)c(Cl)c3)ncnc2cc1C#CC(C)(C)N1CCN(C)CC1
    -3% | nt
- COc1ccc2nc(NC(=O)c3nc(S(=O)(=O)Cc4ccccc4F)ncc3Cl)sc2c1
    7% | 4.8µM*
- CCOc1ccc(-n2c(SCC(=O)c3ccccc3)nc3c([nH]c4ccccc43)c2=O)cc1
    -5% | -21%
- COc1ccc2c(c1)sc1ncc(C(=O)NCc3cccc(Cl)c3)c(=O)n12
    2% | 4%
- COc1ccc(Cn2ccc3nc(C)c(C(=O)Nc4ccc(F)cc4)cc3c2=O)cc1
    ? | ?
- CCOc1cccc2sc(N(Cc3cccnc3)C(=O)c3ccc(C#N)cc3)nc12
    -23% | -46%
- Cc1ccc(-c2nc(CS(=O)CC(=O)N3CCN(c4ccc(F)cc4)CC3)c(C)o2)cc1 (centres undefined)
    ? | ?
- O=C(NC1(C(F)(F)F)C(=O)Nc2c1c(=O)[nH]c(=O)n2CCc1ccccc1)c1ccc(Cl)cc1Cl (centres undefined)
    -4% | 3%
- O=C(C1CCN(S(=O)(=O)c2cccc3nonc23)CC1)N1CCN(c2ccccc2)CC1
    -17% | ?

Results follow in this order: HTT promoter inh | PMP22 txn
- COC(=O)c1c(NC(=O)COc2ccc(C)cc2Br)sc2c1CCCC2
    10%[11.5 µM] | -5%
- O=C(Nc1ccccc1)C1CCN(S(=O)(=O)c2ccc3c(c2)CCCN3C(=O)C2CCC2)CC1
    ? | -5%
- Cc1cc(=O)n2nc(N3CCC(C(=O)NCc4ccc(F)cc4)CC3)sc2n1
    -8% | -7%
- CCOc1ccc(C(=O)Nc2ccc3nc(SCc4ccccc4)sc3c2)cc1
    -20% | 8.9µM*
- O=C(O)CO.[NH2-].[NH2-].[Pt+2]
    13% | nt
- COc1ccc(NC(=O)c2cc(C)nc3c2c(C)nn3-c2cccc(Cl)c2C)c(OC)c1
    -20% | -9%
- Cc1ccc(NC(=O)Cn2nnc(C(=O)NCCc3ccccc3)c2N)cc1C
    0% | -7%
- COc1ccc(N2C(=O)CCSC23C(=O)N(Cc2ccc(F)cc2)c2ccccc23)cc1Cl (centres undefined)
    ? | ?
- COc1ccc(-c2cn3nc(N4CCC(C(=O)Nc5cc(Cl)ccc5OC)CC4)sc3n2)cc1
    13% | ?
- CCOC(=O)C1CCN(C(=O)Cn2ncc3c4ccccc4n(Cc4ccc(F)cc4)c3c2=O)CC1
    ? | 0%
- COc1ccc(N(CC(=O)N2CCN(c3cccc(OC)c3)CC2)S(=O)(=O)c2c(C)noc2C)cc1
    -21% | ?
- COc1ccc(-c2nc(CSc3nc4ncccc4[nH]3)c(C)o2)cc1OC
    -23% | -74%
- O=C(Nc1ccccc1C(F)(F)F)n1ncc2cc(Cl)ccc21
    -3% | 7%
- COc1ccc(NC(=O)c2c(NC(=O)c3ccncc3)sc3c2CCC(C(C)(C)C)C3)cc1 (centres undefined)
    -29% | ?
- COC(=O)c1cc2occc2n1Cc1cccc(C)c1
    -22% | ?
- O=C(NCN1CCOCC1)c1cnccn1
    -12% | nt
- CCc1ccccc1NC(=O)N1CCc2c([nH]c3ccccc23)C1c1ccc(C)cc1 (centres undefined)
    ? | -28%
- Cc1ccc2c(=O)cc(C(=O)Nc3c(C(=O)c4ccccc4)oc4ccccc34)oc2c1C
    10% | -15%
- O=C(NCc1ccccc1Cl)c1cnc(N2CCCCC2)c2ccccc12
    -12% | -31%
- CCN(CC)c1ccc(NC(=O)c2cccn2-c2nnc(N3CCCCC3)s2)c(C)c1
    ? | ?

Structure | HTT promoter inh | PMP22 txn
COCCNC(=O)CSc1nc(-c2cc(OC)c(OC)c(OC)c2)[nH]c1-c1ccc(Cl)cc1 | 11% | -14%
CC(CN(C)C)CN1c2ccccc2CCc2ccccc21 (centres undefined) | -3% | nt
CCOc1ccccc1C(=O)N1CC(=O)Nc2ccc(C)cc2C1c1ccccc1 (centres undefined) | -21% | 20%
Cc1cccc(N2CCN(C(=O)CSCc3ccc(F)cc3)CC2)c1C | ? | -19%
CC(=O)c1ccc(N2CCN(C(=O)Nc3ccc(C(C)C)cc3)CC2)cc1 | 22µM* | ?
CC(=O)Nc1cccc(NC(=O)CSc2cn(CC(=O)N3CCCC3)c3ccccc23)c1 | -9% | -3%
Cc1ccc(CNC(=O)CN2C(=O)C3(SCC(=O)N3c3ccc(F)c(F)c3)c3ccccc32)cc1 (centres undefined) | 3% | -7%
COc1ccc(NC(=O)Cn2nc(C)c3c(C)n(-c4ccccc4)nc3c2=O)cc1OC | 3% | -11%
COc1ccc(N2CCN(c3cc(C)nc4nncn34)CC2)cc1 | ? | -46%
O=C(CCCn1c(=O)c2sccc2n(Cc2ccc(Cl)cc2)c1=O)NCc1ccc2c(c1)OCO2 | -22% | ?
COc1ccc(Cn2c(C(=O)O)c(CNC3CCCC3)c3ccc(OC)cc32)cc1 | -23% | 12%
O=C(COc1ccccc1)Nc1ccc(OCc2cc(=O)n3ccsc3n2)cc1 | -2% | -4%
Cc1c(C)n(Cc2ccc(F)cc2)c2ccc(C(=O)Nc3ccc(Cl)cc3)cc12 | ? | ?
Cc1ccsc1CN(Cc1ccco1)c1cnc(S(C)(=O)=O)nc1C(=O)Nc1ccc(Cl)cc1 | -26% | -21%
CCc1ccc(NC(=O)Nc2nnc(N(C)C3CCCCC3)s2)cc1 | -23% | ?
CCOC(=O)c1c(NC(=O)COc2ccc(OC)cc2)sc(C(=O)N(CC)CC)c1C | 11µM* | ?
Cc1ccccc1OCC(=O)Nc1cc(-c2cccc(Br)c2)nn1-c1ccccc1 | 1% | -28%
COc1ccc(N(C)C(=O)Cn2cnc3sc(C)c(S(=O)(=O)N4CCN(c5ncccn5)CC4)c3c2=O)cc1 | -13% | -11%
Cc1ccc(/C=C/c2onc(C)c2S(=O)(=O)N2CCC(C(=O)Nc3cc(C)ccc3C)CC2)cc1 | -7% | -19%
Cc1ccccc1N1CC(c2nc3ccccc3n2Cc2ccc(Br)cc2)CC1=O (centres undefined) | ? | ?

Of the compounds above, 2 contain a COOH group.
Structure | HTT promoter inh | PMP22 txn
O=C(O)CO.[NH2-].[NH2-].[Pt+2] | 13% | nt
COc1ccc(Cn2c(C(=O)O)c(CNC3CCCC3)c3ccc(OC)cc32)cc1 | -23% | 12%

Other compounds.
Structure | HTT promoter inh | PMP22 txn
CCOC(=O)N1CCN(Cc2nc3cc(NC(=O)c4ccccc4Cl)ccc3n2C(C)C)CC1 | ? | ?
CCC(Sc1nc2c(sc3ccccc32)c(=O)n1CCc1ccc(OC)c(OC)c1)C(=O)N(CC)CC (centres undefined) | ? | ?
CCOc1ccc(C(=O)NCc2ccc3c(c2)CCN3C(=O)c2ccc(C)cc2)cc1OCC | ? | 7%
COc1ccc(Cl)cc1C(=O)Nc1sc2c(c1C(=O)OC(C)C)CCCC2 | -14%[11.5 µM] | -10%
CCOC(=O)c1noc2ncn(CC(=O)Nc3cccc(C(F)(F)F)c3)c(=O)c12 | -5% | 1%
CCCCCn1c(=O)[nH]c2cc(C(=O)Nc3ccc(F)c(F)c3)ccc2c1=O | -2% | ?
O=C(CCC1CCCC1)N1CCc2c([nH]c3ccccc23)C1c1ccc(F)cc1 (centres undefined) | -29% | ?
Cc1ccc(C(C)C)c(OCC(=O)Nc2ccc(C(=O)OC3CCCCC3)cc2)c1 | 4% | ?
CC(C)Oc1ccc(CNC(=O)c2ccc(CS(=O)c3cccc(Cl)c3)o2)cc1 (centres undefined) | ? | ?
COc1ccc(OC)c2sc(NC(=O)c3ccc(S(=O)(=O)N4CCCC4)cc3)nc12 | -11% | -26%
O=C(NCc1cccnc1)c1nn(-c2ccc(F)cc2)nc1CO | -19% | -5%
Cc1ccc(C)c(Cn2nnc(C(=O)NCc3ccccc3)c2N)c1 | -23% | -6%
CN(C)c1ccc(CNC(=O)CCC(=O)N2Cc3ccccc3Oc3ncccc32)cc1 | -6% | -3%
COc1ccc(CCNC(=O)Cn2c(=O)c3cccn3c3ccccc32)cc1OC | -10% | -13%
Cc1nc(-n2nc(C)c(CCC(C)C)c2C)sc1C(=O)Nc1cccc(Cl)c1 | -6% | ?
CCCCCOC(=O)Nc1nc(=O)n([C@@H]2O[C@H](C)[C@@H](O)[C@H]2O)cc1F | 2% | nt
NC(=O)c1cccnc1 | -17%&5% | nt
Cc1ccc2nc(N3CCC(C(=O)NCc4ccc(F)cc4)CC3)[nH]c2c1 | 15% | 5%
CCOC(=O)c1noc2ncn(Cc3ccc([N+](=O)[O-])cc3)c(=O)c12 | 6% | -48%
CC(=O)c1cccc(NC(=O)C2CCN(C(=O)c3cnn(-c4ccccc4)c3-n3cccc3)CC2)c1 | -30% | -15%

Structure | HTT promoter inh | PMP22 txn
CCc1ccc(C(=O)c2cn(CC(=O)Nc3ccc4c(c3)OCO4)c3cc(OC)c(OC)cc3c2=O)cc1 | -14% | -34%
Cc1sc2ncn(CC(=O)N(C)c3ccc(Br)cc3)c(=O)c2c1S(=O)(=O)N1CCC(C)CC1 | 7% | -1%
CCOc1ccc2nc(N(Cc3cccnc3)C(=O)c3cccs3)sc2c1 | 28% | 11%
Cc1c(NC(=O)c2ccc(N3CCC(C)CC3)c([N+](=O)[O-])c2)cccc1-c1nc2ccccc2o1 | -31% | -1%
CCC(O)c1nc2ccccc2n1CCOc1cc(C)cc(C)c1 (centres undefined) | ? | ?
CCOC(=O)c1c(C)oc2nc(C)nc(NCCCN3CCN(c4ccccc4OC)CC3)c12 | -1% | ?
CC(=O)N1CCOc2cc(S(=O)(=O)Nc3c(C)cccc3C(C)C)c(Cl)cc21 | ? | -12%
COc1ccc(S(=O)(=O)N2CCC(C(=O)NC(C)c3ccccc3)CC2)cc1 (centres undefined) | -20% | -7%
CC(=O)c1cccc(NC(=O)c2nc3ccccc3nc2N2CCCCC2)c1 | -21% | -6%
COC(=O)c1cc(NC(=O)CC2C(=O)OCCN2Cc2ccccc2)cc(C(=O)OC)c1 (centres undefined) | -17%[11.5 µM] | 9%
Cn1c(C(=O)N2CCC(C(=O)NCCc3ccc(S(N)(=O)=O)cc3)CC2)cc2sccc21 | -6% | -10%
Cc1cccc(OCC(=O)OCc2cc(=O)n3nc(-c4cccs4)sc3n2)c1 | -12% | -17%
CC(Sc1cn(CCNC(=O)c2ccccc2F)c2ccccc12)c1ccccc1 (centres undefined) | ? | ?
COc1ccc(NC(=O)C2CCCN(c3cnccn3)C2)c(OC)c1 (centres undefined) | 1% | 0%
Cc1cc(C)cc(OCC(=O)NCC2(N(C)C)CCCCC2)c1 | -1% | -3%
CCN(CC)c1ccc(NC(=O)C2CCN(S(=O)(=O)c3c(C)noc3/C=C/c3ccccc3F)CC2)c(C)c1 | -20% | ?
Cc1ccc2nc(-c3ccc(NC(=O)COc4ccc(Cl)c(C)c4)cc3)sc2c1 | 58%[activator] | 12%
CN(Cc1ccccc1)S(=O)(=O)c1ccc(F)c(C(=O)Nc2ccccc2C(F)(F)F)c1 | -26% | -16%
Cc1cc(C)cc(NC(=O)CSCn2nnc3c(=O)[nH]c(Cc4ccc(F)cc4)nc32)c1 | -23% | 10%
